# 2A firefly: Primary qHTS Assay for Foot and Mouth Disease Virus Antivirals against NCGC Sytravon and CBC Compound Libraries: Firefly Luciferase Signal; HEK cells with a luciferase reporter of 2A StopGo recoding; Potency, µM (doses to about 57.5 µM), for the others: at the top dose signal change, negative = less light; hit rate 0.23% among 120,000; AID 1745856, 2022; active = well fitted falling curve with a large enough effect; inconclusive = small, poorly fitted or top-dose-only effect; inactive = no such curve, though single readings can be large or run the other way; also: nearly all actives have a fitted effect of over 60% in size; overnight with compound
# StopGo RLuc: Primary qHTS Assay for Foot and Mouth Disease Virus Antivirals against NCGC Sytravon and CBC Compound Libraries: Renilla Luciferase Signal; HEK cells with a luciferase reporter of 2A StopGo recoding; Potency, µM (highest dose often 57.5 µM), without a hit: top-dose signal change, negative = less light; hit rate 0.32% among 120,000; active means well fitted falling curve with a large enough effect; inconclusive means small, poorly fitted or top-dose-only effect; inactive means no such curve, though single readings can be large or run the other way; also: nearly all actives have a fitted effect of over 55% in size; overnight with compound
# Active calls of the source: *; ? = inconclusive; & = joins results of further samples; [ ] = remark or other dose. % is scaled to controls: 0 for no effect and ±100 for the full control effect; potency is read from the fitted curve at half-maximal effect.
1	COc1cc(C)ccc1OCc1ccc(C(N)=O)cc1
2	COc1ccc2c(Sc3ccc(Cl)cc3)c(C(=O)N3CCCCC3)[nH]c2c1
3	COc1cccc(CNC(=O)CCNS(=O)(=O)c2ccc3c(c2)oc(=O)n3C)c1
4	CCOCCn1c(SCC(=O)OC)nc2c1c(=O)[nH]c(=O)n2C
5	Cc1ccc(CSc2ncc(Cl)c(C(=O)Oc3ccccc3F)n2)cc1
Compound,1,2,3,4,5
StopGo RLuc,12%,-9%,4%,-3%,-9%
2A firefly,213%[activator],26%,-16%,-1%,3%

6	S=C(NCc1cccnc1)Nc1ccc(Br)cc1Cl
7	CC(C)c1ccc(-n2nnnc2C2(Nc3ccccc3)CCCC2)cc1
8	CCOc1ccc(-c2cc(-c3nc(-c4cc(OC)c(OC)c(OC)c4)no3)[nH]n2)cc1
9	CCOc1ccc(-n2c(-c3ccc(OC)cc3)cc3c2CC(C)(C)CC3=O)cc1
10	COc1ccc(CC(C)NS(=O)(=O)c2ccc3c(c2)CCN3S(C)(=O)=O)cc1OC (stereo not drawn)
Compound,6,7,8,9,10
StopGo RLuc,215%[activator],421%[activator],-12%,-10%,26%
2A firefly,190%[activator],17%,36%[activator],-3%,17%

11	Cn1c(=O)n(C)c2cc(NC(=O)CN3C(=O)COc4ccccc43)ccc21
12	Cc1cccc(Cn2c(Cc3ccccc3)nc3ccccc32)c1
13	Cc1ccn2cc(-c3ccc(NC(=O)CCC4CCCCC4)cc3)nc2n1
14	CC1=C(C(=O)OC(C)(C)C)C(c2cccc3ccccc23)NC(=S)N1 (stereo not drawn)
15	CCCn1c2ccccc2c2nnc(SCc3ccc(F)cc3)nc21
Compound,11,12,13,14,15
StopGo RLuc,10%,33%[activator],5%,6%,-4%
2A firefly,0%,-10%,103%[activator],2%,4%

16	CC1CCCCN1CCCNC1CCCC1 (stereo not drawn)
17	CCOC(=O)C(N)c1ccc(OC(C)C)cc1 (stereo not drawn)
18	Cc1cccc2[nH]c(C(=O)OCC(=O)N3CCCCC3)cc12
19	COc1ccc(-c2nnc(SCC(=O)NCCc3ccc(OC)c(OC)c3)nc2-c2ccc(OC)cc2)cc1
20	CCCCOc1cccc(C(=O)Nc2cc(NC(=O)c3ccco3)ccc2OC)c1
Compound,16,17,18,19,20
StopGo RLuc,1%,-1%,-7%,-8%,-2%
2A firefly,4%,9%,166%[activator],12%,-19%

21	CCOc1ccc(NC(=O)N2CCN(c3nnc(C)c4c(C)n(-c5ccccc5)nc34)CC2)cc1
22	COC(=O)c1ccc(C(=O)OC)c(NC(=O)c2cnn3c(C(F)F)cc(-c4ccccc4)nc23)c1
23	N=c1n(CCN2CCCCC2)c2ccccc2n1CC(O)COc1ccc(Cl)cc1Cl (stereo not drawn)
24	CCOC(=O)c1[nH]c(C)c(/C=N/O)c1C
25	O=[N+]([O-])c1cc(NS(=O)(=O)c2ccc(Br)s2)c(F)cc1F
Compound,21,22,23,24,25
StopGo RLuc,4%,-7%,-15%,-3%,?
2A firefly,21%,-3%,-47%,19%,?

26	O=C(Nc1ccccc1)N1CCC2(CC1)Oc1ccccc1C(=O)N2Cc1ccccc1F
27	CC(C)(C)c1[nH]c2ccc(-c3ccccc3)cc2c1C=O
28	COc1ccc2c(c1)CCc1c(C(=O)Nc3c(C)nn(Cc4c(Cl)cccc4Cl)c3C)noc1-2
29	CCCCCCCCOc1ccc(/C=C(/C#N)c2ccccn2)cc1
30	CCOC(=O)c1nnn(CC(=O)NC(=O)Nc2cccc(CC)c2)c1C(=O)OCC
Compound,26,27,28,29,30
StopGo RLuc,-7%,18%,21%,-12%,-7%
2A firefly,16%,33%[activator],0%,10%,6%

# Reformatted: results already given
item	compound	StopGo RLuc	2A firefly
15	CCCn1c2ccccc2c2nnc(SCc3ccc(F)cc3)nc21	-4%	4%
16	CC1CCCCN1CCCNC1CCCC1 (stereo not drawn)	1%	4%
17	CCOC(=O)C(N)c1ccc(OC(C)C)cc1 (stereo not drawn)	-1%	9%
18	Cc1cccc2[nH]c(C(=O)OCC(=O)N3CCCCC3)cc12	-7%	166%[activator]
19	COc1ccc(-c2nnc(SCC(=O)NCCc3ccc(OC)c(OC)c3)nc2-c2ccc(OC)cc2)cc1	-8%	12%
20	CCCCOc1cccc(C(=O)Nc2cc(NC(=O)c3ccco3)ccc2OC)c1	-2%	-19%
21	CCOc1ccc(NC(=O)N2CCN(c3nnc(C)c4c(C)n(-c5ccccc5)nc34)CC2)cc1	4%	21%
22	COC(=O)c1ccc(C(=O)OC)c(NC(=O)c2cnn3c(C(F)F)cc(-c4ccccc4)nc23)c1	-7%	-3%
23	N=c1n(CCN2CCCCC2)c2ccccc2n1CC(O)COc1ccc(Cl)cc1Cl (stereo not drawn)	-15%	-47%
24	CCOC(=O)c1[nH]c(C)c(/C=N/O)c1C	-3%	19%
25	O=[N+]([O-])c1cc(NS(=O)(=O)c2ccc(Br)s2)c(F)cc1F	?	?
26	O=C(Nc1ccccc1)N1CCC2(CC1)Oc1ccccc1C(=O)N2Cc1ccccc1F	-7%	16%
27	CC(C)(C)c1[nH]c2ccc(-c3ccccc3)cc2c1C=O	18%	33%[activator]
28	COc1ccc2c(c1)CCc1c(C(=O)Nc3c(C)nn(Cc4c(Cl)cccc4Cl)c3C)noc1-2	21%	0%
29	CCCCCCCCOc1ccc(/C=C(/C#N)c2ccccn2)cc1	-12%	10%
30	CCOC(=O)c1nnn(CC(=O)NC(=O)Nc2cccc(CC)c2)c1C(=O)OCC	-7%	6%

# The listing continues.
31	O=S(=O)(Nc1cccc(-c2ccc(N3CCCCC3)nn2)c1)c1ccc(F)cc1F
32	Cc1ccc(NC(=O)Cn2c(-c3cncs3)nc3ccccc32)cc1Br
33	Cn1c(=O)c2c(nc(NCCCc3ccccc3)n2Cc2ccccc2F)n(C)c1=O
34	COc1ccc(-c2cc(C(F)(F)F)nc(SCCC(=O)Nc3ccc(NC(C)=O)cc3)n2)cc1
35	Cc1ccc(COc2c(Br)cc(/C=C(\C#N)c3nc4ccc(C)cc4[nH]3)cc2Br)cc1
Compound,31,32,33,34,35
StopGo RLuc,58%[activator],-3%,?,-9%,4%
2A firefly,92%[activator],-7%,?,0%,69%[activator]

36	Cn1cc(C(=O)NC2CCCCCCC2)c2ccccc21
37	CCOCCCNC(=O)C(NC(=O)C1CCC(C(C)C)CC1)C(C)C (stereo not drawn)
38	CCc1nn(CC(=O)N2CCN(c3cccc(C)c3C)CC2)c(=O)c2cc3sccc3n12
39	O=S(=O)(Nc1nc2ccccc2nc1Nc1ccc2c(c1)OCO2)c1cc(Cl)ccc1Cl
40	CCN(C(=O)c1cnc(N2CCOCC2)c2ccccc12)c1cccc(C)c1
Compound,36,37,38,39,40
StopGo RLuc,79%[activator],15%,-16%,-23%,14%
2A firefly,3%,3%,-16%,?,-13%

41	CCOc1ccccc1NC(=O)CN1C(=O)C2(SCC(=O)N2c2ccc(C)cc2)c2ccccc21 (stereo not drawn)
42	CC(=O)N1CCCc2cc(S(=O)(=O)N(CCN(C)C)Cc3ccccc3)ccc21
43	CC(=O)Nc1ccc(OCC(C)CN2CCC(C(O)(c3ccccc3)c3ccccc3)CC2)cc1 (stereo not drawn)
44	CCCn1c(NC(=O)c2oc3ccc(OC)cc3c2C)nc2ccccc21
45	COc1ccc(CNC(=O)Cc2cccc(C(F)(F)F)c2)cc1OC
Compound,41,42,43,44,45
StopGo RLuc,-2%&-7%,26%,-13%,-6%,11%
2A firefly,1%&17%,-8%,-16%,6%,26%

46	O=c1[nH]c(CSc2nnc(-c3ccccc3F)n2C2CC2)nc2ccc(Cl)cc12
47	COc1ccc(OCc2nc(C#N)c(NCc3ccccc3Cl)o2)cc1
48	O=C(NCCc1ccccc1)c1nn(-c2ccc(F)cc2)nc1CO
49	COc1ccc(NC(=O)c2oc3ccc(S(=O)(=O)N4CCOCC4)cc3c2C)cc1
50	COc1cccc(OC)c1C(=O)OCC(N)=O
Compound,46,47,48,49,50
StopGo RLuc,34%,16%&47%,-2%,2%,2%
2A firefly,?,21%&39%,1%,-3%,-3%

51	O=C(O)c1cc2ccc(Br)cc2[nH]1
52	CC1CCN(C(=O)C(C)n2cnc3c2c(=O)n(C)c(=O)n3C)CC1 (stereo not drawn)
53	CC1(C)CCCC(C)(C#CCN2CCC(Cc3ccccc3)CC2)O1 (stereo not drawn)
54	Cc1ccc2nc(-c3ccccc3)cc(C(=O)NCCN3CCOCC3)c2c1
55	CC(=O)Oc1ccc2c(=O)c(-c3ccc(Cl)cc3)coc2c1
Compound,51,52,53,54,55
StopGo RLuc,10%,-10%,-1%,9%,-2%
2A firefly,7%,-1%,18%,7%,58%[activator]

56	O=C(CSc1nc(-c2ccccc2)nc2cc(=O)[nH]n12)Nc1ccccc1F
57	CNC1CCc2ccccc21 (stereo not drawn)
58	[O-]/[N+](=C\c1ccc2ccccc2n1)c1ccccc1
59	O=c1[nH]c2ccc(-c3csc(Nc4ccc(F)cc4)n3)cc2o1
60	Cc1cc(NC(=O)Cn2cnc3c2c(=O)n(C)c(=O)n3C)ccc1Br
Compound,56,57,58,59,60
StopGo RLuc,23%,-3%,22%,15%,18%
2A firefly,27%,18%,204%[activator],87%[activator],?

61	CCCCC1CCC(c2nc3ccccc3[nH]2)CC1 (stereo not drawn)
62	CCC(=O)N1CCc2cc(S(=O)(=O)NC(Cc3ccccc3)C(=O)Nc3ccc(C)cc3)ccc21 (stereo not drawn)
63	COc1cccc(SC(C)C(=O)NC(C)(C)C)c1 (stereo not drawn)
64	CN(C)S(=O)(=O)c1ccc(N2CCCCC2)c(C(=O)OC(C(=O)NC2CC2)c2ccccc2)c1 (stereo not drawn)
65	O=C(Cn1cnc2onc(-c3ccc(Cl)cc3)c2c1=O)Nc1ccc(F)cc1
Compound,61,62,63,64,65
StopGo RLuc,22%,38%[activator],-7%,0%,-16%
2A firefly,100%[activator],-18%,-9%,2%,8%

66	CCCC(=O)c1ccc(OC(=O)c2c(-c3ccccc3Cl)noc2C)cc1
67	O=C(NCc1ccc(CN2CCCCC2)cc1)c1cc(=O)[nH]c2ccccc12
68	COc1ccc(NC(=O)N2CCc3c(sc4c3CCCC4)C2c2ccccc2OC)cc1 (stereo not drawn)
69	CCc1ccc(OCC(=O)Nc2ccc3oc(-c4ccccc4)nc3c2)c(-n2cnnc2)c1
70	O=C(Nc1cccc(-c2nc3ccccc3[nH]2)c1)c1ccccc1F
Compound,66,67,68,69,70
StopGo RLuc,?,-9%,5%,6%,-8%
2A firefly,?,-4%,7%,196%[activator],36%[activator]

71	CCOC(=O)CSc1nc(-c2ccc(OC)cc2)cc(C(F)(F)F)c1C#N
72	Cc1ccc(Cn2cccc(C(=O)Nc3nc4ccc(C)cc4s3)c2=O)cc1
73	CC(C)c1ccc(NS(=O)(=O)c2ccc3[nH]c(=O)ccc3c2)cc1
74	O=C(CSc1ncnc2sc3c(c12)CCC3)NCc1ccc(F)cc1
75	CC(O)c1ccc(-c2ccc(CNC3CCCC3)o2)cc1 (stereo not drawn)
Compound,71,72,73,74,75
StopGo RLuc,-12%,4%,171%[activator],30%[activator],-4%
2A firefly,-15%,0%,24%,52%[activator],20%

76	Cc1ccc(CNCc2cccn2-c2nnc(N3CCCC3)s2)cc1
77	Cc1ccsc1-c1nc2ccccc2s1
78	CCOc1ccccc1C(=O)Nc1c(C(=O)N2CCN(Cc3ccccc3)CC2)oc2ccccc12
79	Cc1cccc2c(C(=O)O)cc(-c3ccco3)nc12
80	O=C(NCC(O)c1cccc(Cl)c1)Nc1nnc(C2CC2)s1 (stereo not drawn)
Compound,76,77,78,79,80
StopGo RLuc,?,-1%,21%,-8%,-1%
2A firefly,-21%,47%[activator],10%,6%,4%

81	O=S(=O)(Nc1cccc(-c2ccc(N3CCCCC3)nn2)c1)c1ccc(Cl)s1
82	N#CCSc1nc2cc(C(=O)NCc3ccccc3)ccc2c(=O)n1CCc1ccccc1
83	CCc1ccc(C(=O)COC(=O)Cc2ccsc2)cc1
84	Cc1ccccc1CS(=O)Cc1ccc(Cl)cc1Cl (stereo not drawn)
85	CC(=O)Nc1ccc2nc3c(=O)n(C)c(=O)n(C)c3nc2c1C
86	COc1cc(OC)c(N(C)C(=O)CSc2c3c(nc4ccc(Cl)cc24)CCCC3)cc1Cl
87	Cc1c(C(=O)N2CCC(c3nc4ccccc4o3)CC2)oc2ccc(Cl)cc12
88	CC(C)C(=O)Nc1ccc(S(=O)(=O)NCCn2nc(-c3ccccc3)ccc2=O)cc1
Compound,81,82,83,84,85,86,87,88
StopGo RLuc,135%&77%[activator],1%,14%,73%[activator],-17%,-20%,-7%,-3%
2A firefly,156%&152%[activator],-1%,15%,2%,-12%,-22%,-1%,-10%

# Source: PubChem BioAssay (National Center for Advancing Translational Sciences (NCATS))
